Compound activity deposited in PubChem by National Center for Advancing Translational Sciences (NCATS).
GAA inhib: qHTS Assay for Inhibitors of Human alpha-Glucosidase as a Potential Chaperone Treatment of Pompe Disease | AID 1466, 2008 | Lysosomal alpha-glucosidase (Homo sapiens), P10253 | 200,000 compounds, 0.005% hits | Potency, µM (titrated, usually from 76.9 µM), without a hit: at the highest dose activity change, negative = inhibition, actives largely listed as inhibitors | purified human GAA, 4-MU-alpha-glucoside fluorescence;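 note: plate controls were uninhibited enzyme wells for no effect and no-enzyme background for full effect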
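Compounds are titrated up to 77 uM against 4 nM human enzyme. Substrate 4-methylumbelliferyl-alpha-D-pyranoside (400 uM) reacts 20 min at room temperature in pH 5.0 buffer; liberated 4-methylumbelliferone is read at 440 nm.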
SMN2 splice enh: qHTS Assay for Enhancers of SMN2 Splice Variant Expression. HEK293 SMN2-luciferase splicing reporter, luminescence, 30-36 h. Potency, µM (top dose mostly 46.1 µM), for the others: at the highest dose activity change, positive = activation, actives largely listed as activators. 210,000 compounds, 2.8% hits. AID 1458, 2008; note: % of control where 0% means no effect; nearly all actives have a fitted effect of over 55% in size
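HEK293 cells carry an SMN2 minigene-luciferase reporter in which exon 7 inclusion puts luciferase in frame. Cells were seeded at 2000 cells/well, attached for 10-12 hours, then exposed to compounds for 30-36 hours at 37C before ONE-Glo luminescence.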
ALDH1A1 inh: qHTS Assay for Inhibitors of Aldehyde Dehydrogenase 1 (ALDH1A1). Purified ALDH1A1, NADH fluorescence, propionaldehyde substrate. Potency, µM (series often up to 75.3 µM), for inactives: at the top dose activity, negative = inhibition, actives largely listed as inhibitors. 220,000 compounds, 7.3% hits. AID 1030, 2008; active = well fitted inhibition curve with a large enough effect, not every such curve was filed as active; inconclusive = small, poorly fitted or top-dose-only effect, or another doubt; inactive = no such curve, though single readings can be large or run the other way;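 note: plate controls were no enzyme wells and a reference inhibitor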
Target sequence (P00352 whole entry, looked up): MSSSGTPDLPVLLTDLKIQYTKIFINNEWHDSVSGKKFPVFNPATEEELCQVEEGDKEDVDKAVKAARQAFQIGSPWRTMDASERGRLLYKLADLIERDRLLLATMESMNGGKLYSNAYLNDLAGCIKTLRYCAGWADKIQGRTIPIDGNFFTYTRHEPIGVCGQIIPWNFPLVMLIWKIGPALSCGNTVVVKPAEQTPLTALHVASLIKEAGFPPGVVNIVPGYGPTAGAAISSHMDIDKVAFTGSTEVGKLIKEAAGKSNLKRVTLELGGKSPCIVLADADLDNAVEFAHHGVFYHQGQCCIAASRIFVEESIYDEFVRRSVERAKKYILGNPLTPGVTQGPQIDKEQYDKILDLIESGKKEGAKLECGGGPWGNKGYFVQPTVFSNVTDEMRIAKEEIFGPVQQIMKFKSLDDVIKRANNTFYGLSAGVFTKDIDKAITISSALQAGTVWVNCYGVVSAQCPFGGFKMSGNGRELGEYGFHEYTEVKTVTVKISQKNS
GAA glycogen mod: qHTS Assay for Inhibitors and Activators of Human alpha-Glucosidase Cleavage of Glycogen | 300,000 compounds, 0.38% hits | AID 2100, 2009 | recombinant GAA, glycogen substrate, Amplex Red glucose oxidase fluorescence | Potency, µM (series often up to 76.4 µM), inactives show at the top dose activity change, negative = inhibition, usual class: inhibitors;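 note: 0% = full enzyme reaction and -100% = no-enzyme basal signal; the screen sought inhibitors and activators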
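Recombinant enzyme (4 nM final) with compounds titrated up to 77 uM and bovine liver glycogen (30 ug) in citrate pH 5.0, 0.01% Tween-20, 37 C 40 min. Released glucose detected by Amplex Red/glucose oxidase (Ex 573/Em 610); AC50 from Hill fits.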
aGlu spleen mod: qHTS Assay for Inhibitors and Activators of Human alpha-Glucosidase From Spleen Homogenate. Lysosomal alpha-glucosidase (Homo sapiens), P10253. human spleen homogenate, 4-MU-alpha-glucoside fluorescence. Potency, µM (top dose mostly 79.9 µM), without a hit: at the highest dose activity change, negative = inhibition, actives largely listed as inhibitors. 240,000 compounds, 0.006% hits. AID 2112, 2009;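 note: 0% = enzyme with vehicle and -100% = no enzyme basal signal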
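AC50 values come from Hill-equation fits of concentration-response data, normalized to no-enzyme and full-activity controls. Enzyme source: 1 ug human spleen homogenate; 1 mM fluorogenic 4-MU glucoside, pH 5.0 citrate buffer, 37 C, 40 min.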
GLA spleen mod: qHTS Assay for Inhibitors and Activators of Human alpha-Galactosidase From Spleen Homogenate | Alpha-galactosidase A (Homo sapiens), P06280 | human spleen homogenate, 4MU-alpha-Gal fluorescence, 40 min | Potency, µM (series often up to 80 µM), inactives show at the top dose activity change, negative = inhibition, hits mostly inhibitors | 240,000 compounds, 0.008% hits;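 note: 0% = enzyme with vehicle and -100% = no enzyme basal signal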
Target sequence (P06280 32-429 limits assumed): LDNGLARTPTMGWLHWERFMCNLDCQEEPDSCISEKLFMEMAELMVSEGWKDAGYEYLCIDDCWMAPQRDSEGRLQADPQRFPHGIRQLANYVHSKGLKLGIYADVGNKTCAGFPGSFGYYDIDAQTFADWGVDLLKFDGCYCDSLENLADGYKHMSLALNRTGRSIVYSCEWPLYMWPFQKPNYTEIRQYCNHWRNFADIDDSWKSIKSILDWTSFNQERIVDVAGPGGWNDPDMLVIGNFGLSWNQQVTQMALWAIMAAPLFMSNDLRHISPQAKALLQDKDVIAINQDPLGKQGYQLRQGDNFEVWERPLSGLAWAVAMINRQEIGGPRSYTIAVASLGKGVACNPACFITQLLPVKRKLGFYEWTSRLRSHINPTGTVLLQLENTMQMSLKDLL
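Fluorogenic readout (Ex 365/Em 440 nm) of 4-methylumbelliferone released from 1 mM 4-MU-alpha-galactoside by spleen homogenate, 40 min at 37C, pH 5.0. Data normalized to no-enzyme and enzyme controls; Hill-equation AC50 from compound titrations.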
Active calls of the source: *; ? = inconclusive; nt = not tested or not shown; [ ] = remark or other dose. Unless noted, calls come from the whole dose curve; as a rule, active = well fitted curve in the direction sought with a large enough effect; inconclusive = small, poorly fitted or top-dose-only effect, or another doubt; inactive = no such curve, though single readings can be large; an effect the other way counts as inactive or inconclusive. Potency is the fitted concentration of half-maximal effect.

Second line of a record – GAA inhib | SMN2 splice enh | ALDH1A1 inh | GAA glycogen mod | aGlu spleen mod | GLA spleen mod
1) CCOc1cc(C)c(Cl)cc1S(=O)(=O)NCc1ccc2c(c1)OCO2
  -10% | -11% | ? | -1% | 0% | -2%
2) CCN1CCN(c2nc(S(=O)(=O)c3ccc(C)cc3)c(Cl)s2)CC1
  0% | -41%[inhibitor] | -15% | -4% | -2% | 6%
3) COc1ccc(/C=C/C(=O)NC(=S)N2CCN(c3ccccn3)CC2)cc1
  nt | nt | nt | -2% | 5% | 6%
4) CCCCNc1nc(-c2ccccc2)c(C(=O)OCC)cc1C#N
  2% | -16% | ? | -12% | -17% | -4%
5) CC(=O)NS(=O)(=O)c1cccnc1Nc1ccc(Cl)c(Cl)c1
  -12% | -11% | 1% | 3% | -2% | -8%
6) CCN(c1ccc(NC(=O)COC(=O)CCC(=O)c2ccc(F)cc2)cc1)C(C)C
  2% | 6% | ? | -9% | -5% | -7%
7) Cc1cc(C)c(NC(=O)C2CCCN2C)c(C)c1 (configuration not stated)
  -5% | -13% | 13% | 1% | -3% | -4%
8) CC1(C)C2CCC1(C)C(NC(=O)/C=C/c1ccccc1)C2 (configuration not stated)
  -10% | -53%[inhibitor] | -12% | -4% | -3% | -10%
9) CCCCNC(=O)c1onc(CCl)c1C(=O)OC
  -5% | -3% | 14µM* | 10% | 1% | -25%
10) Cc1cccc2cc(CN(Cc3ccco3)C(=O)c3ccncc3)c(=O)[nH]c12
  10% | -27% | ? | 5% | 3% | 2%
11) O=C(CCc1ccccc1)c1c(O)cc(O)cc1O
  nt | nt | nt | ? | 7% | 5%
12) FC(F)(F)c1ccccc1NC(=S)N1CCN(c2ncccn2)CC1
  -2% | -45%[inhibitor] | 1% | 3% | 0% | 0%
13) CCc1ccccc1NC(=O)Nc1cc(F)ccc1F
  8% | -35%[inhibitor] | -3% | 11% | -6% | -6%
14) COC(=O)C1=NN(c2ccccc2OC)C2C(=O)N(c3ccccc3OC)C(=O)C12 (configuration not stated)
  -6% | -24% | -2% | -2% | -11% | 0%
15) O=C(CC1C(=O)NCCN1Cc1c(F)cccc1Cl)NCCC1=CCCCC1 (configuration not stated)
  -3% | -9% | 1% | 16% | 0% | -3%
16) CC(NC(=O)COC(=O)CC(c1ccccc1)c1ccccc1)c1ccccc1 (configuration not stated)
  -8% | -7% | 5% | -8% | 1% | 7%
17) CCOC(=O)c1cc(C#N)c(Oc2cccc(C(F)(F)F)c2)nc1-c1ccccc1
  -5% | -33%[inhibitor] | 2% | -4% | -12% | 5%
18) CC(NC(=O)COC(=O)c1ccc(N(C)C)cc1)c1ccccc1 (configuration not stated)
  10% | 11% | -3% | 4% | -15% | -1%
19) COCCOc1cc(N)c(Cl)cc1Cl
  -2% | 5% | -4% | 1% | -1% | 1%
20) CCn1c(Cc2ccccc2)nnc1SCC(=O)Nc1ccc(S(N)(=O)=O)cc1
  -7% | 9% | -6% | -21% | -2% | -3%
21) C/C(CC(=O)NCC(C)C)=N\NC(=O)COc1cc(C)c(Br)cc1Br
  -2% | 11% | ? | -7% | 3% | 4%
22) c1cncc(CNc2cccc(-c3nc4ccccc4[nH]3)c2)c1
  10% | 0.89µM* | ? | 3% | -3% | 1%
23) FC(F)(F)c1ccccc1NC(=S)NN1CCOCC1
  6% | -1% | 7% | 5% | 1% | 5%
24) CCN(CC)S(=O)(=O)c1ccc(C(=O)N2CCCCC2)cc1
  -13% | 5% | -15% | -1% | -6% | -11%
25) COc1ccccc1CC(=O)Nc1ccc(-c2noc(COc3ccc(Cl)c(C)c3)n2)cc1
  -3% | -62%[inhibitor] | -9% | 4% | 4% | 0%
26) COC(=O)c1cc(=O)nc2sc3cc(OC)ccc3n12
  -2% | 0% | 16µM* | 2% | 1% | 1%
27) CC1(C)CC(/C=C/c2ccccc2)=Nc2ccccc2N1
  ? | nt | -7% | -10% | 4% | 0%
28) Cc1ccc(OCc2nnc(SCC(=O)Nc3ccc4c(c3)OCO4)n2C)cc1
  -7% | ? | 5% | 2% | -27% | -7%
29) Cc1c(C(=O)Nc2ccc(Cl)cc2)c2ccccn2c1C(=O)c1ccccc1
  1% | -11% | ? | -12% | -3% | -4%
30) CCOc1ccc(/C=N/n2c(C)nnc2C)cc1OC
  -10% | 10% | -4% | 7% | -1% | 5%

Single records, as listed above. Values in the order: GAA inhib | SMN2 splice enh | ALDH1A1 inh | GAA glycogen mod | aGlu spleen mod | GLA spleen mod
Results for Cc1ccc(OCc2nnc(SCC(=O)Nc3ccc4c(c3)OCO4)n2C)cc1 : -7% | ? | 5% | 2% | -27% | -7%
Results for CC(NC(=O)COC(=O)CC(c1ccccc1)c1ccccc1)c1ccccc1 (configuration not stated) : -8% | -7% | 5% | -8% | 1% | 7%

Grouped by structure: those above with an aryl thioether with sulfur outside any ring (2)
Second line of a record – GAA inhib | SMN2 splice enh | ALDH1A1 inh | GAA glycogen mod | aGlu spleen mod | GLA spleen mod
20) CCn1c(Cc2ccccc2)nnc1SCC(=O)Nc1ccc(S(N)(=O)=O)cc1
  -7% | 9% | -6% | -21% | -2% | -3%
28) Cc1ccc(OCc2nnc(SCC(=O)Nc3ccc4c(c3)OCO4)n2C)cc1
  -7% | ? | 5% | 2% | -27% | -7%

With a hit mark in ALDH1A1 inh, of those listed so far:
| no. | Compound | GAA inhib | ALDH1A1 inh | GAA glycogen mod |
| --- | --- | --- | --- | --- |
| 9 | CCCCNC(=O)c1onc(CCl)c1C(=O)OC | -5% | 14µM* | 10% |
| 26 | COC(=O)c1cc(=O)nc2sc3cc(OC)ccc3n12 | -2% | 16µM* | 2% |

Back to the main list with the two entries that preceded the break.
Second line of a record – GAA inhib | SMN2 splice enh | ALDH1A1 inh | GAA glycogen mod | aGlu spleen mod | GLA spleen mod
29) Cc1c(C(=O)Nc2ccc(Cl)cc2)c2ccccn2c1C(=O)c1ccccc1
  1% | -11% | ? | -12% | -3% | -4%
30) CCOc1ccc(/C=N/n2c(C)nnc2C)cc1OC
  -10% | 10% | -4% | 7% | -1% | 5%
31) COC(=O)c1c(CCl)noc1C(=O)NC(C)C
  4% | 3% | 3% | 1% | -9% | -10%
32) CC(Sc1n[nH]c(N)n1)C(=O)C12CC3CC(CC(C3)C1)C2 (configuration not stated)
  -4% | -3% | ? | 8% | 9% | -1%
33) Cc1sc2ncn(CC(=O)NCCCC(=O)N3CCN(c4ncccn4)CC3)c(=O)c2c1C
  0% | -20% | 12% | 7% | 4% | 6%
34) CC(c1ccccc1)C1CC(=O)N(C2CCCCC2)C1=O (configuration not stated)
  -4% | -8% | ? | -7% | -10% | 22%
35) COc1ccc(C(=O)Nc2ccc(C3(C#N)CCCC3)cc2)cc1
  0% | -1% | 1.3µM* | -14% | -4% | 2%
36) COc1cc(Br)c(CC(=O)O)cc1OC
  -1% | 13% | -3% | 0% | -2% | 2%
37) Cc1c(C(=O)Nc2ccc(Cl)cc2)c2ccccn2c1C(=O)c1ccc([N+](=O)[O-])cc1
  3% | -34% | 6% | 14% | 0% | 3%
38) CC1=C(C(=O)Nc2cc(C)ccn2)C(c2ccc(C)cc2)C2=C(CCCC2=O)N1 (configuration not stated)
  14% | 10µM* | ? | -17% | 3% | 14%
39) COc1cc(O)c(CC=C(C)C)c(O)c1C(=O)CCc1ccc(O)cc1
  nt | nt | nt | -22% | -7% | -3%
40) COc1ccc(NC(=O)c2sc(N)nc2-c2ccccc2)cc1
  1% | 12% | 8% | 4% | 3% | 1%
41) COc1ccc(-c2nnc(SC)o2)c(OC)c1
  0% | 27% | ? | 21% | -5% | -2%
42) CSc1nc(N(C)C)nc(N2CC(=O)N(CCNS(=O)(=O)c3ccc(C)cc3)C2=N)n1
  -14% | -6% | -3% | -2% | -6% | -1%

Some of the compounds tested (hit frequency here may not be typical).
